Sa RN4220 lethal = growth inhibition of S. aureus RN4220, primary screen, OD600 | 16 h | inhibition, % (no concentration beside the values) | actives 0.33% (n = 330,000) | AID 1259311, 2017;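 active means z-score of -3 or lower and OD600 up to 0.18 on both plates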;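 further: plate controls were untreated cells for no effect and reference antibiotic for full effect; stock transfer was 100 nL into about 80 µL; one replicate is shown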
BJeLR lethal = MLPCN primary cell-based screen for lethality selective to Ras in HRASV12 cells. BJeLR (HRASV12) viability, CellTiter-Glo ATP luminescence, 48 h; reference of the scale not given here. inhibition, % (test concentration not listed). actives 0.17% (n = 300,000). AID 1554, 2009;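 active means replicate mean above 50%; inconclusive means above 50% but judged a plate artefact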;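 further: 50 nL library stock added to about 25 µL; numbers are from one replicate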
Autofluor counter = flagged as autofluorescent in microsphere protease counterscreen; compound autofluorescence counterscreen, microsphere flow cytometry; active compounds read high; fluorescence intensity (test concentration not listed); actives 3.1% (n = 360,000); AID 624483;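 active means at least 3 SD above the mean of all compounds, about 16000 in these data; inconclusive means too few beads counted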;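 further: 100 nL of 1 mM stock went into each well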
Mtb hypoxia inh = PubChem AID 1159583; M. tuberculosis hypoxia-regulated fluorescent reporter, fluorescence; fluorescence inhibition, % (test concentration not listed); actives 0.1% (n = 300,000);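 active means 35 to 45% if threefold the growth effect, above 45% if 1.5-fold the growth effect; inactive means the rest, general growth blockers included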;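 further: wells of about 50 µL received 100 nL stock; 0% = vehicle wells and 100% = reference inhibitor wells; whole bacteria with a GFP reporter of the hypoxia response; strong numbers were not always called active; many hits fall short of the cut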
PrP 5UTR inh = inhibition of PrP 5' UTR reporter expression | inhibition, % (no concentration beside the values) | actives 0.35% (n = 340,000) | cell-based PrP 5' UTR mRNA reporter, plate reader | AID 488862, 2010;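 active means every replicate at 50% or more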;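 further: 0 = median of the neutral control wells; tested in H4 reporter cells; numbers are from one replicate; inactives centre near -14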
ugtP null kill = growth inhibition of ugtP-null S. aureus, primary screen, RN4220 ugtP deletion, OD600; actives 0.54% (n = 330,000); 16 h; some inactives read as strong as hits; growth inhibition, % (concentration not given with the values);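 active means z-score under -3 and OD600 up to 0.15 on both plates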;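 further: plate controls were untreated wells for no effect and antibiotic for full effect; wells of about 80 µL received 100 nL stock; the first replicate is given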
Mtb hypoxia inh growth = second read-out of Mtb hypoxia inh, no call of its own (marks repeat the call); growth inhibition, %; measured here: M. tuberculosis growth (absorbance);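 0% = vehicle and 100% = reference antibiotic; read after six days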
* hit, by the source's call; ? = inconclusive; / = no result given.

SMILES	Sa RN4220 lethal	BJeLR lethal	Autofluor counter	Mtb hypoxia inh	Mtb hypoxia inh growth	PrP 5UTR inh	ugtP null kill
c1ccc(CNc2cnccn2)cc1	5.2	-1	9727	1	6	-58	6
Cc1cccc(CCN(Cc2cc3cccc(C)c3[nH]c2=O)C(=O)N2CCOCC2)c1	1.9	-5	10171	0	5	0	1
COc1ccc([N+](=O)[O-])cc1NC(=O)c1cncc(Br)c1	2.4	-9	2282	6	8	-14	22
Cc1ccccc1CN(C)C1CCN(C)CC1	5.7	-8	4630	12	5	-4	6
Cn1c(=O)c2c(ncn2CC(N)=O)n(C)c1=O	-9.7	4	2830	2	-4	-18	-5
COc1cccc(C2C3=C(CCCC3=O)Nc3[nH]n(-c4ccccc4)c(=O)c32)c1 (configuration not stated)	5.6	15	4616	11	-1	-29	-3
CC(=O)Nc1cc(C)nn1-c1nc2ccccc2s1	-10	1	4898	9	7	-40	1
COc1ccc(NC(=O)COC(=O)CC2CC3CCC2C3)c([N+](=O)[O-])c1 (configuration not stated)	4.0	-7	2515	2	8	5	7
CN1C(=O)C(=Cc2c(OCc3cnc(Cl)s3)ccc3ccccc23)C(=O)N(C)C1=O	2.9	2	3906	14	11	-28	18
Cc1ccc(NC(=S)NNC(=O)CSc2nnc(-c3ccc(Cl)cc3)n2C2CCCCC2)cc1	-1.6	9	1982	-4	-3	-10	-3
CC(=O)Nc1ccc(S(=O)(=O)NCCC(=O)NCCOc2ccccc2)cc1	-2.3	/	4982	4	9	-15	0
CC(c1ccco1)N(C(=O)c1ccc(C#N)cc1)c1ccccn1 (configuration not stated)	7.4	-2	6071	5	6	-14	-1
Cn1nnc(NC(=O)c2ccccc2F)n1	2.0	-7	3368	5	2	-59	-5
C/C(=N\NC(=O)c1cc(-c2ccc(Br)s2)[nH]n1)c1ccncc1	/	-5	4188	/	/	0	/
Cc1cc2cc(NC(=O)c3ccco3)ccc2[nH]1	-1.4	4	2039	15	6	-83	-4

Results in Sa RN4220 lethal, for some of the entries so far:
mol	Sa RN4220 lethal
Cc1ccc(NC(=S)NNC(=O)CSc2nnc(-c3ccc(Cl)cc3)n2C2CCCCC2)cc1	-1.6
COc1ccc([N+](=O)[O-])cc1NC(=O)c1cncc(Br)c1	2.4
COc1ccc(NC(=O)COC(=O)CC2CC3CCC2C3)c([N+](=O)[O-])c1 (configuration not stated)	4.0

Next records follow:
SMILES	Sa RN4220 lethal	BJeLR lethal	Autofluor counter	Mtb hypoxia inh	Mtb hypoxia inh growth	PrP 5UTR inh	ugtP null kill
O=S1(=O)N=C(NN=C/C=C/c2ccccc2)c2ccccc21	2.8	/	/	4	-4	/	5
CC[C@]12c3[nH]c4ccccc4c3CCN1C(=O)C(CC(=O)NC(C)(C)C)C[C@@H]2C(=O)N1CCN(C(=O)C2CC2)CC1 (some centres not stated)	4.5	/	3607	-2	-3	5	7
COc1ccc(C(CNC(=O)Cn2[nH]c(=O)c3ccccc3c2=O)N2CCCC2)cc1 (configuration not stated)	7.0	6	3949	6	9	-7	-3
Cc1cc(C(=O)OCC(=O)NCc2ccc3c(c2)OCO3)c2ccccc2n1	-4.4	4	5151	15	12	-3	7
Cc1ccc(C(C)C)c(OCc2ccc(C(=O)N/N=C/c3ccc(O)c(O)c3)cc2)c1	/	-8	2305	/	/	3	/
O=C(c1ccco1)N1CCN(c2ncnc3c2[nH]c2ccc(Br)cc23)CC1	-19	-1	2261	/	/	-7	-1
CCOc1cc2[nH]c(=S)n(Cc3ccc(C(=O)NCCCN4CCOCC4)cc3)c(=O)c2cc1OCC	-0.7	-7	5894	2	11	-3	3
COC(=O)NN=Cc1c[nH]c2ccccc12	5.4	/	/	8	14	/	2
CCN(CC)C(=O)Cn1cc(SCC(=O)NC2CCCC2)c2ccccc21	2.9	-12	4618	-9	-14	-26	3
CCS(=O)(=O)n1nc(-c2ccccc2)nc1SCc1ccccc1	-1.0	-2	4590	/	/	-46	4
COc1cc(C(=O)NNC(=O)c2cccc(Cl)c2)ccc1OCC(=O)N1CCOCC1	0.7	/	4048	5	6	-13	1
CC(C)n1c(N2CCN(C(=O)Nc3ccc(Cl)cc3)CC2)nc2ccccc21	-11	5	4332	9	-2	-42	1
CC1(C)Cc2c(sc3nn[nH]c(=O)c23)CO1	3.1	-11	4780	-3	12	-24	2
CC(=NNc1ccc(Cl)c(C(=O)O)c1)c1cccc([N+](=O)[O-])c1	2.0	/	/	-11	-16	/	-6
COc1ccc(NC2=Nc3cccc4cccc2c34)cc1OC	0.5	-3	4177	-3	0	-21	-10
CC(C)Oc1ccc(CNC(=O)C2CCN(C(=O)N3CCOc4ccccc43)CC2)cc1	-12	1	4449	-4	-1	-2	3
Cc1ccc(Cn2nnc3c(=O)[nH]c(C4CCN(S(=O)(=O)Cc5ccccc5)CC4)nc32)cc1	0.4	0	3639	-8	4	-47	3
Cc1ccc(CNC(=O)C2CCC(=O)N2Cc2ccc(C)cc2)cc1 (configuration not stated)	-1.6	-2	3495	-9	-12	-21	-6
COc1ccc(N(C(=O)c2cnsn2)C(C(=O)NC2CCCCC2)c2ccncc2)cc1 (configuration not stated)	-2.3	-2	2645	9	8	-5	6
COc1ccc(/C=N/NC(=O)CCn2cnc3ccccc32)cc1	/	-14	4905	/	/	-21	/
CC(C)CC1CN=C(Nc2ccccc2)N1CCCC1CCCCC1 (configuration not stated)	-0.9	/	/	-10	17	/	-35
Cc1cccc(N2C(=O)CC(Sc3nc(-c4ccccc4)c4cc(Cl)ccc4n3)C2=O)c1 (configuration not stated)	-1.2	-3	3673	/	/	-5	-7
O=C1NC(=O)N(c2ccc3c(c2)OCO3)C(=O)/C1=C\c1ccc(-c2ccccc2C(=O)O)o1	0.2	20	4051	2	5	-3	11
Cc1cccc(-c2ncc(S(=O)(=O)C(C)(C)C)c(N)n2)c1	4.4	-6	4870	2	12	-94	11
CCOC(=O)/C(=N/Nc1ccc(Cl)cc1)S(=O)(=O)c1ccccc1	/	-6	7442	/	/	-29	/
Cc1c(N=Cc2cc3c(cc2Cl)OCO3)c(=O)n(-c2ccccc2)n1C	2.1	-8	23177*	6	1	0	1
C=CCOC(=O)C1=C(C)NC(C)=C(C(=O)OCC=C)C1c1cccs1	1.1	-10	9919	6	0	-52	77
CCOC(=O)c1sc(NC(=O)CSc2n[nH]c(C)n2)nc1C	3.3	8	2645	11	4	-22	3
Cc1ccc(NC(=O)CSc2nc3ccc(Nc4nc(N5CCOCC5)nc(N5CCOCC5)n4)cc3s2)cc1	3.6	/	5802	0	4	-4	-24
O=C(Cc1ccccc1)Nc1ccccc1Oc1ccccc1	4.3	-4	2082	-3	2	-29	5
O=C(NC1CCCCCCC1)C1c2ccccc2C(=O)N1Cc1cccs1 (configuration not stated)	0.7	0	2122	9	1	-8	7
CC(=O)NCc1ccc(C(=O)CSc2nnc(C3CC3)n2C2CC2)cc1	6.1	/	6665	6	-1	-10	12
CCCCCCCN(C(=O)CCl)c1cccc(C)c1	25	92*	10512	22	16	-24	87*
Cc1cccc(C(C)C)c1NC(=O)COC(=O)CN1C(=O)C2CC=CCC2C1=O (configuration not stated)	1.5	-4	?	3	1	-6	6
CC1CC1C(=O)OCC(=O)NNC(=O)COc1ccc(Br)cc1 (configuration not stated)	3.1	2	?	1	0	2	1
O=C(/C=C/c1ccccc1)c1c(O)n(CCc2ccccc2)c(=O)[nH]c1=O	0.6	-33	4168	-3	11	-10	-3
Cc1cc(C)c2c(=O)n(CC(=O)N3CCC(N4CCCCC4)CC3)sc2n1	-15	-14	4514	0	8	-9	-13
CCOc1ccc(C(=O)N2CCN(c3ccccn3)CC2)cc1	4.0	-4	/	6	-3	-16	7
CCOc1ccc(C(C)NC(=O)Cc2ccccc2)cc1OCC (configuration not stated)	-0.9	0	2006	-4	9	-14	0
CCC1(C)Cc2c(sc3nc4n(c(=O)c23)CCS4)CO1 (configuration not stated)	-1.9	1	6359	/	/	-26	6
Cc1sc2nc(CN3CCOCC3)nc(NS(=O)(=O)c3cc(Cl)ccc3Cl)c2c1C	7.3	/	3770	16	5	-8	7
CCSC1=C(C#N)C(c2ccc3c(c2)OCO3)C2=C(CCCC2=O)N1 (configuration not stated)	-0.6	-1	2668	/	/	-12	-3
O=C(CN1C(=O)NC2(CCCc3ccccc32)C1=O)NCc1cccs1 (configuration not stated)	2.7	/	6067	7	-6	-20	4
COC(=O)CN1C(=O)S/C(=C/c2cc(C)n(C)c2C)C1=O	0.7	1	15483	-8	-9	-73	-2
COCCNc1nnc(SCC(=O)NNC(=O)c2ccc([N+](=O)[O-])cc2)s1	4.1	4	5221	7	4	-25	-4

Brought forward from above: 4 compounds, then new ones.
SMILES	Sa RN4220 lethal	BJeLR lethal	Autofluor counter	Mtb hypoxia inh	Mtb hypoxia inh growth	PrP 5UTR inh	ugtP null kill
CCSC1=C(C#N)C(c2ccc3c(c2)OCO3)C2=C(CCCC2=O)N1 (configuration not stated)	-0.6	-1	2668	/	/	-12	-3
O=C(CN1C(=O)NC2(CCCc3ccccc32)C1=O)NCc1cccs1 (configuration not stated)	2.7	/	6067	7	-6	-20	4
COC(=O)CN1C(=O)S/C(=C/c2cc(C)n(C)c2C)C1=O	0.7	1	15483	-8	-9	-73	-2
COCCNc1nnc(SCC(=O)NNC(=O)c2ccc([N+](=O)[O-])cc2)s1	4.1	4	5221	7	4	-25	-4
Cc1n[nH]c(=O)c2c(NC(=O)CSc3ccccc3Cl)oc(C)c12	/	-5	?	/	/	-3	/
CC(Sc1nc2ccccc2[nH]1)C(=O)O (configuration not stated)	3.3	2	23428*	2	7	-14	3
COCCCNC(=O)CSc1nc2c(sc3ccccc32)c(=O)n1CCCC(=O)NCC1CCCO1 (configuration not stated)	2.2	4	2467	10	-1	-2	11
O=C(CN1CC(c2ccccc2)CC1=O)OCc1ccccc1F (configuration not stated)	0.8	7	9593	-2	-1	-30	-6
O=[N+]([O-])c1cc(/C=N\Nc2ccccn2)ccc1Cl	/	-3	4010	/	/	-17	/
Cc1ccc2nc(-c3ccncc3)cc(C(=O)Nc3ccc(OC(F)F)cc3)c2c1	5.0	8	3352	10	9	-21	24
O=C1C2C3C=CC(C4CC34)C2C(=O)N1/N=C/c1ccc(-c2ccc(F)cc2[N+](=O)[O-])o1 (configuration not stated)	/	6	3080	/	/	-11	/
O=C1C(=O)c2ccccc2C(O)=C1C1CCC(c2ccc(Cl)cc2)CC1 (configuration not stated)	1.6	/	4340	1	-4	13	-13
Cc1ccc2[nH]c3c(c2c1)CCN(C)C3	1.4	11	1077	6	3	8	9
Fc1ccc(-c2csc3ncnc(N4CCc5ccccc5C4)c23)cc1	-6.7	-2	9052	8	3	-21	0
CCCCN(C)CCNC(=O)c1cc2c(-c3ccccc3F)nn(C)c2s1	-4.1	0	7022	15	9	-5	8
O=C(CSc1ncnc2nc[nH]c12)Nc1ccccc1C(F)(F)F	/	-12	10094	/	/	-12	/
O=S(=O)(Nc1nc2ccccc2nc1NCC1CCCO1)c1ccccc1 (configuration not stated)	7.5	1	3639	10	-4	-28	1
O=C1CCc2cc(S(=O)(=O)Nc3ccccc3F)cc3c2N1CCC3	8.3	10	/	-3	-3	-10	3
COc1cccc2sc3cc(NCc4ccc5c(c4)OCO5)ccc3c(=O)c12	31	/	2756	4	4	-20	-24
CC(C)CCN(C(=O)c1ccncc1)c1c(N)n(Cc2ccccc2)c(=O)[nH]c1=O	5.6	/	6149	9	0	/	2
Cc1ccc(CNCc2cc3c(C(C)(C)C)nn(-c4ccccc4)c3[nH]c2=O)cc1	-7.1	-4	9797	7	28	-15	21
COCCNC(=O)COc1cccc(Oc2ccccc2)c1	5.5	-11	5582	9	4	4	-2
O=C(CNC(=O)C(c1ccccc1)c1ccccc1)N/N=C/c1cccnc1	/	14	5615	/	/	-18	/
Cc1c(C)c2ccc(OCC(=O)NC3CCN(Cc4ccccc4)CC3)cc2oc1=O	1.7	-10	5978	9	15	-7	10
CC1CN(c2ccc(S(=O)(=O)N3CCCC3)cn2)CC(C)O1 (configuration not stated)	3.7	1	4575	5	17	-31	11
Cc1cccc(/C=N/n2c(-c3cc(-c4ccccc4)n[nH]3)n[nH]c2=S)c1	/	-23	2059	/	/	6	/
O=C(NC1CCN(Cc2ccc(Cl)cc2)CC1)c1cn(-c2ccccc2)nc1-c1cccnc1	1.4	/	21980*	2	-3	-5	12
Cc1cccc(C(=O)NNC(=O)c2ccc(S(=O)(=O)N3CCOCC3)cc2)c1	3.6	-10	2977	2	1	-2	1

Compound activity as filed in PubChem.
